RanGTP-Impb inh: disruptors of Ran-importin-beta complex formation – biochemical, FRET, CFP-Ran, YFP-importin-beta, homogeneous, primary screen | cell-free CFP-Ran/YFP-importin-beta FRET ratio | inhibition, % (test concentration not listed) | actives 1.1% (n = 300,000);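 active = most replicates above 15%; inconclusive = exactly half above 15%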;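 also: 0% = DMSO wells and 100% = Ran loaded with GDP instead of GTP; wells of about 40 µL received 100 nL stock; the first replicate is given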
MLL AF4-AF9 inh: blocks AF4 peptide binding to human AF9 | AlphaScreen, biotin-AF4 peptide binding to FLAG-AF9 | inhibition, % at 10 µM | actives 0.47% (n = 350,000) | P42568;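 active = every replicate reaching a set inhibition limit, whatever the replicate mean, cut at about 25% in these data; inconclusive = mean inhibition reaches that limit but some replicates miss it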;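 also: 0% = plate neutral control median and 100% = total signal loss; the record names both 10 and 1 µM as test concentration; the first replicate is given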
T cruzi repl: blocks replication of Trypanosoma cruzi. T. cruzi beta-gal in NIH3T3, luminescence, 90 h. inhibition, % (concentration not given with the values). actives 1.4% (n = 300,000). AID 1885;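 active = mean inhibition across valid replicates above about 55%, limit read from the data; inconclusive = mean below that limit but half or more replicates reach it; inactive = mean below it, under half of replicates reach it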;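 also: signal also drops with host cell toxicity which is not excluded here; 0% = plate median of DMSO wells and 100% = zero luminescence signal; higher percent means less beta-gal luminescence so fewer parasites; stock transfer was 50 nL into about 50 µL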
Beta apoptosis: blocks beta cell apoptosis. protection from apoptosis, % (no concentration beside the values). actives 0.8% (n = 300,000). INS-1E cytokine-induced death, ATP luminescence, 48 h; percent of positive-control rescue, neutral wells zero;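 active = all replicates at 75% or more, or half of them and the mean; inconclusive = half reach 75% but not the mean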;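 also: 0% = cytokine-treated negative control wells and 100% = positive control rescue; higher means more ATP so stronger rescue from cytokine killing; wells of about 40 µL received 100 nL stock; the first replicate is given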
A1 inh: inhibitors of the anti-apoptotic protein A1, read as caspase activation. MEF A1-2A-BIM cells, Caspase-Glo 3/7 luminescence, 3 h; percent of clofoctol response, vehicle zero. actives 0.066% (n = 330,000). AID 2462. caspase activation, % (test concentration not listed);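 active = over half of replicate activation scores above 10%, or exactly half above 10 with the replicate mean above 10; inconclusive = replicate mean below 10 yet half the replicates above 10; inactive = over half of replicates below 10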;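 also: wells of about 30 µL received 50 nL stock; many hits fall short of the cut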
Vif TR-FRET: HIV-1 Vif–A3G interaction blockers – biochemical, TR-FRET, GST-Vif 1-94, biotin-A3G peptide, dose response retest, primary screen (AID 1117319) | actives 0.57% (n = 260,000) | inhibition, %; hits with a dose series show IC50 in µM | TR-FRET GST-Vif / biotin-A3G peptide binding; higher % means a stronger effect; test concentration not given here; strong numbers were not always called active;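 active = above the screen mean plus three standard deviations and confirmed in dose response; inconclusive = results disagree or hit not tested in dose response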;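 also: Vif residues 1-94 fused to GST binding biotinylated APOBEC3G peptide 110-148; 0% = full assay without inhibitor and 100% = GST in place of GST-Vif; retest series ran down from 100 µM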
LANA-H2B inh: blocks KSHV LANA binding to histone H2A/H2B | Q9QR71 | actives 0.6% (n = 320,000) | cell-free LANA-H2A/H2B peptide, fluorescence polarization | inhibition, % (no concentration beside the values); in the data active = inhibition mostly above about 10%, no sharp cut-off; inactive = mostly below about 6.7%;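 also: stock transfer was 7.5 nL into about 10 µL; 0% = median of vehicle wells and 100% = median of positive control wells; one replicate is shown; the record names a cut of 25% in any replicate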
Target sequence (Q9QR71 whole entry, looked up): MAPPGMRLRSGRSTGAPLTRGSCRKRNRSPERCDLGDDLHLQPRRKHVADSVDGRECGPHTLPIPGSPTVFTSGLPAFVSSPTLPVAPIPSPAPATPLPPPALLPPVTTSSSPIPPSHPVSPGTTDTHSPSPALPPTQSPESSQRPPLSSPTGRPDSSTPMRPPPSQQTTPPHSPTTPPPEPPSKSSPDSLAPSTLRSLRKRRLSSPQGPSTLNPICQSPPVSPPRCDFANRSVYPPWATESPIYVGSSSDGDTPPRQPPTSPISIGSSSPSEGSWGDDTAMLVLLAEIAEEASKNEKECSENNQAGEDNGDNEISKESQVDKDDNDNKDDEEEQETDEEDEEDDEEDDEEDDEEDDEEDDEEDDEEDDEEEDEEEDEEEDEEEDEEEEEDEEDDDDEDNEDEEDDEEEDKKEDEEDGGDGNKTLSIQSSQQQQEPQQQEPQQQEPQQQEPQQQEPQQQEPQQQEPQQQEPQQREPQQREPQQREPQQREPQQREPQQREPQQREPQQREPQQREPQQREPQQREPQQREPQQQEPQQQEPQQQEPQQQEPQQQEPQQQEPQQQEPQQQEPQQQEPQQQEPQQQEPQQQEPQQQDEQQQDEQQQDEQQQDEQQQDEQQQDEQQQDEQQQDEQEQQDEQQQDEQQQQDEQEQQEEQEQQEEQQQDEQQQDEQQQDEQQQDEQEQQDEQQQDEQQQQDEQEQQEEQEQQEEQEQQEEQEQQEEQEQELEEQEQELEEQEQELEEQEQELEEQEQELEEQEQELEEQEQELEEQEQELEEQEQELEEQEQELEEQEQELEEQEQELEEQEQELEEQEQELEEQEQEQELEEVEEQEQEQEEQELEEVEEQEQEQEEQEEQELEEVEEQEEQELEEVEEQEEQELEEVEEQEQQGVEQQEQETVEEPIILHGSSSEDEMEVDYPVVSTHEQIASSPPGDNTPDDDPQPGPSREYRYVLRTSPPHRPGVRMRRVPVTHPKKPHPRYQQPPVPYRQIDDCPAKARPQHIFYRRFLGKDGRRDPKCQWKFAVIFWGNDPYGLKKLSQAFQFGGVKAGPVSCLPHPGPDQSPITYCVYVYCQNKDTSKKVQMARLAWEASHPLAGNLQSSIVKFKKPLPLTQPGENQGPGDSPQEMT
Calb FLC: C. albicans growth modulation with fluconazole. AID 1979. actives 0.57% (n = 300,000). C. albicans CaCi-2 (fluconazole-resistant clinical isolate) + fluconazole, Alamar Blue growth, 48 h. growth inhibition, % (concentration not given with the values);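 active = most replicates above 75%; inconclusive = exactly half above 75%; inactive = most below 75%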;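 also: all wells also contain fluconazole at 8 µg/ml as a sub-toxic cotreatment; 0% = median of DMSO wells and 100% = median of geldanamycin control wells; wells of about 8 µL received 7.5 nL stock; the first replicate is given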
An asterisk follows results filed as active; u = inconclusive; x = no result given; + = active, no number; & = joins results of further samples.

SMILES | RanGTP-Impb inh | MLL AF4-AF9 inh | T cruzi repl | Beta apoptosis | A1 inh | Vif TR-FRET | LANA-H2B inh | Calb FLC
COCCCNC(=O)c1ccc(-c2csc(C)n2)cc1 | 0.6 | 0.1 | -5 | -3 | -1.6 | x | -1.1 | 4
COC(=O)c1ccc(OCCN2CCCCCC2)cc1 | 4.3 | -11 | 13 | -1 | 0.0 | x | 0.7 | 8
Cc1ccc(S(=O)(=O)N2CCC(n3nnc4cc(C)ccc43)CC2)cc1 | 2.4 | x | 20 | 5 | -0.4 | 5% | -1.8 | 2
CSCCCc1cn([C@@H](CO)C(=O)NCCCCCCCCCCC(=O)N2CCNCC2)nn1 | 2.4 | 0.5 | -12 | -1 | u | x | -4.9 | 1
CC(OC(=O)C1CC(=O)N(Cc2ccccc2)C1)C(=O)Nc1ccc(F)cc1Cl (stereo not given) | 3.7 | -2.1 | -3 | -3 | -0.8 | 4% | 7.4 | x
CCOC(=O)C(CO)(NC(C)=O)C(=O)OCC | 1.0 | x | -18 | -3 | 0.9 | 0% | 0.0 | 0
O=C(CCc1nnc(CCCc2ccccc2)o1)NCCc1ccco1 | -0.1 | -1.4 | -6 | -3 | -0.2 | -6% | -2.7 | -3
O=C(CCCn1c(SCC(=O)NCC2CCCO2)nc2ccccc2c1=O)NCc1ccccc1 (stereo not given) | -0.5 | x | -8 | -3 | -0.3 | -1% | 0.9 | 25
O=C(NNC(=O)c1ccc(Oc2cc(Cl)cc(Cl)c2)o1)c1ccccc1 | -0.2 | x | 15 | 1 | 0.2 | x | 6.4 | 8
c1cn(CCCNC2=NCCCCC2)cn1 | 2.1 | x | -9 | -1 | 1.1 | 0% | 0.6 | 26
NC(=O)CSc1oc(-c2cccs2)nc1S(=O)(=O)c1ccccc1 | 0.7 | x | -10 | x | -0.3 | -10% | -0.4 | 7
OCCN(CCCn1c(-c2ccncc2)nc2ccccc21)c1nc(CN2CCCCC2)cs1 | -0.4 | 0.6 | -30 | -11 | 0.5 | x | 3.2 | -5
NS(=O)(=O)c1ccc(N/N=C/c2ccc[nH]2)c([N+](=O)[O-])c1 | 3.2 | 5.4 | -12 | 7 | -0.1 | 12% | 4.6 | 11
CC(NC(=O)Nc1ccc(Br)cc1)C(C)(C)C (stereo not given) | -2.3 | -2.5 | -2 | 2 | -0.4 | -5% | -1.3 | 0
COc1ccc(NC(=O)CSc2nnnn2C2CCCCC2)c(OC)c1 | 6.0 | -0.1 | -2 | -5 | -0.6 | x | -2.5 | 2
O=C(Cn1cc(C(=O)C(F)(F)F)c2ccccc21)NCc1ccco1 | 5.5 | -2.5 | -10 | -8 | 0.1 | 16% | 2.2 | 21
CN(C(=O)COC(=O)c1ccc(Br)c([N+](=O)[O-])c1)c1c(N)n(Cc2ccccc2)c(=O)[nH]c1=O | 0.8 | -1.4 | -2 | 1 | -1.6 | 1% | -4.6 | 1
Cc1c(C(=O)OC(C)CCN(C)C)oc2ccccc12 (stereo not given) | -108 | x | 57* | -1 | 0.5 | 7% | -0.9 | -15
O=C(/C=C/c1ccc(OC(F)F)cc1)Nc1cccc(S(=O)(=O)N2CCOCC2)c1 | 0.4 | 2.4 | 21 | -2 | 1.1 | 5% | 3.3 | 9
c1ccc(CSc2nnc(NC3=NCCCCC3)s2)cc1 | 6.8 | x | 10 | -2 | -0.9 | 4% | -1.3 | -15
O=C(CCNC(=O)c1ccc([N+](=O)[O-])cc1)Nc1ccccc1N1CCCC1 | -0.2 | 1.6 | 13 | -2 | 1.9 | -11% | -0.8 | -20
Cc1c(Cl)c(C(F)(F)F)nn1CC(=O)N1CCSCC1 | -5.4 | x | -14 | 2 | 0.8 | 9% | -2.5 | -4
COc1ccc(C)cc1S(=O)(=O)N(CC(=O)Nc1cccc([N+](=O)[O-])c1)c1ccc(C)cc1 | 2.5 | 9.1 | 50 | 44 | 0.6 | 31% | -2.1 | -27
Cc1ccc(Sc2cc(C)nc(-c3ccccn3)n2)cc1 | 0.9 | 0.2 | 17 | 87* | -1.0 | -3% | 2.6 | 32
CC1CCCN(C(=O)Cn2cnc3c2c(=O)n(C)c(=O)n3C)C1 (stereo not given) | -1.3 | x | -18 | -7 | 0.1 | 5% | -7.0 | 4
CCN(CC(=O)Nc1ccccc1OC)C(=O)CSCc1c(C)noc1C | 0.4 | -1.2 | -5 | x | -0.5 | x | 5.4 | -3
COc1ccc(NC(=S)N(CCCN2CCCCC2)Cc2cccs2)cc1 | 2.5 | x | -10 | -1 | -0.8 | x | 2.6 | -12
Cc1ccc(N(C(=O)c2csnn2)C(C(=O)NC2CCCC2)c2ccccn2)cc1 (stereo not given) | u | 1.0 | -9 | -1 | 0.4 | x | -2.6 | -2
COc1ccc(OCC(=O)Nc2ccc(S(=O)(=O)N3CCN(C)CC3)cc2)cc1 | -3.1 | -1.9 | -23 | -10 | 0.4 | 3% | 7.0 | 7
O=C(CSc1nnc(-c2ccncc2)n1-c1ccc(Cl)cc1)Nc1ccc(C(=O)O)cc1 | -1.2 | -0.2 | -6 | x | 2.1 | 10% | 2.0 | 21
C(=C\c1ccccc1)/C=N/Nc1nncc(-c2ccccc2)n1 | 0.6 | 0.1 | -5 | -2 | 0.2 | x | 2.5 | 8
C/C(=N\N=C1/NC(=O)C(C)S1)c1ccco1 (stereo not given) | 0.9 | 0.3 | -11 | 4 | 0.8 | x | 12 | 11
COc1ccc(C2=C(CN(C)C)C(c3ccccc3)c3ccccc3O2)cc1 (stereo not given) | 2.4&1.6 | x | 26&19 | 7&6 | 1.1&-0.3 | 6%&16% | -7.0&0.5 | -4&-7
CCc1nnc(NC(=O)COc2ccccc2[N+](=O)[O-])s1 | 1.2 | 0.0 | 0 | -1 | -1.7 | -1% | 0.2 | -4
COCCn1c(SCC(=O)NNC(=O)c2ccc(OC)c(OC)c2)nc2ccccc2c1=O | -2.7 | -8.8 | -18 | -2 | 1.5 | 2% | 4.9 | 10
COc1ccc(/C=N/NC(=O)COc2cccc3cccnc23)cc1OC | u | -0.6 | 14 | -10 | -0.4 | -1% | -0.5 | 29
COc1ccc2[nH]c(=O)c(CN(C(=O)COc3ccccc3)C(C)C)cc2c1 | 1.9 | x | 0 | 1 | -0.2 | -22% | -8.2 | 4
CCCC(=O)Nc1ccccc1N1CCN(C(=O)c2ccccc2)CC1 | 1.2 | x | 4 | -4 | -1.3 | 28% | 1.3 | 20
CCn1nc(C(=O)NCCc2ccc3c(c2)OCCO3)c2ccccc2c1=O | x | 2.0 | x | -10 | 1.6 | 3% | -0.9 | x
CCCCNC(=O)CCc1nc2cccnc2n1Cc1ccc(OC)cc1 | -3.9 | x | 0 | -5 | 0.3 | 3% | -2.2 | 16
O=C(CNC(=O)Cc1ccccc1)N=Nc1c(O)[nH]c2ccc(Br)cc12 | -0.6 | -1.2 | 4 | -6 | -0.3 | -6% | -2.4 | 3
CCCc1cc(=O)[nH]c(SCC(=O)N2CCc3ccccc3C2)n1 | x | -1.5 | x | 1 | -0.2 | -7% | + | x
O=c1c(Cc2ccc(F)cc2)c(O)ccn1Cc1cccc(Cl)c1 | 4.9 | x | -9 | -2 | 3.2 | 22% | 0.2 | -1
COc1ccc(NC(=O)COc2ccc(/C=N/NC(=O)c3cccnc3)cc2OC)cc1 | -1.0 | -0.7 | -7 | 0 | -0.4 | 23% | 8.0 | 16
Cc1cc(C)c(C#N)c(SCC(=O)Nc2ccccc2C)n1 | -2.4 | -1.0 | -4 | 2 | 0.3 | -7% | 3.9 | 4
C(#Cc1ccccc1)CN1CCN(c2ccccn2)CC1 | 0.2 | 2.8 | -7 | -3 | -0.1 | -8%&-4% | 3.1 | x
Cc1nc(NCC2CCCO2)c2nnn(Cc3ccccc3)c2n1 (stereo not given) | 5.7 | 0.3 | 3 | 2 | 0.2 | 4% | -6.9 | -8
CCCCNC(C(=O)Nc1ccc(Cl)c([N+](=O)[O-])c1)c1ccccc1 (stereo not given) | -0.6 | x | 6 | 3 | 0.8 | x | -4.2 | -6
CC(C)Cc1ccc(C(C)C(N)=NCCc2ccccc2)cc1 (stereo not given) | 3.7 | 4.6 | 47 | 11 | -0.3 | x | -3.4 | 31
COc1ccc(C2NC(=S)N(c3ccccc3)C(C)=C2C(=O)Nc2ccccc2)cc1 (stereo not given) | -2.1 | x | 2 | -9 | -0.1 | -7% | -3.7 | -5
Cc1ccnc(NS(=O)(=O)c2ccc(NC(=O)Cc3cccs3)cc2)n1 | u | x | -38 | -4 | -2.3 | 8.3µM* | 3.2 | 11
CCOc1ccc(NC(=O)CN(C)C(=O)/C=C/c2ccco2)cc1OCC | x | -0.9 | x | -3 | 0.9 | -10% | -1.2 | x
CC(C(=O)OCC(=O)NC1CCCC1)N1C(=O)c2ccccc2C1=O (stereo not given) | x | -4.5 | x | -2 | 0.2 | -11% | 0.8 | x
O=C(N/N=C/c1ccc[nH]1)c1cc(-c2ccc(Cl)cc2)nc2ccccc12 | -2.4 | 12 | 15 | 15 | 0.2 | -3% | 8.3 | 3
Cc1cccc(C(=O)NCC(=O)N2CCN(c3ccc(Cl)cc3)CC2)c1 | 3.3 | -1.0 | 11 | x | 1.6 | x | -2.5 | -3
O=C(NCc1cccs1)c1csc2c1CCCCC2 | -3.6 | -18 | -7 | -2 | 1.1 | -4% | 0.8 | -9
CC1CCC(NC(=O)COc2ccccc2C(N)=O)CC1 (stereo not given) | 5.5 | x | -3 | -6 | 0.4 | 1% | 4.5 | -9
Oc1ccc(CCC2CCCCN2Cc2nc(C3CC3)no2)cc1 (stereo not given) | -5.0 | 2.7 | 4 | 4 | -0.3 | 0% | -0.9 | -2
Cc1ccc(C(=O)NCC(=O)OC(C)C(=O)Nc2ccc(N3CCOCC3)cc2)s1 (stereo not given) | 6.7 | 1.0 | 0 | -6 | 1.2 | x | 4.0 | -5
Cc1ccc(C(=O)NC(=S)NCc2cccnc2)c(C)c1 | 1.7 | 1.2 | 52 | -3 | 0.6 | x | -3.2 | 45
Next part
SMILES | RanGTP-Impb inh | MLL AF4-AF9 inh | T cruzi repl | Beta apoptosis | A1 inh | Vif TR-FRET | LANA-H2B inh | Calb FLC
COc1ccc(Br)cc1C(=O)Nc1ccc(Cc2ccncc2)cc1 | u | x | 73* | 6 | -0.3 | -9% | -2.6 | 9
O=C(COC(=O)CCCC1=NS(=O)(=O)c2ccccc2N1)Nc1ccccc1 | 1.4 | -1.1 | -6 | -12 | 0.6 | x | -9.7 | 9
CC(C)c1ccc(NC(=O)COC(=O)c2cc(=O)[nH]c3ccccc23)cc1 | x | 2.1 | x | -4 | -0.7 | -4% | 0.9 | x
Cc1ccc(S(=O)(=O)Nc2nc3cc(C)c(C)cc3[nH]2)cc1 | u | -1.2 | 17 | -14 | 1.2 | u | 3.7 | -3
O=C(Nc1ccon1)Nc1ccccc1C(F)(F)F | 4.1 | -0.7 | -13 | -4 | 0.5 | x | 3.7 | 1
CN(C)c1nc(SCCOC(=O)Nc2ccccc2)nc(N(C)C)n1 | 5.5 | x | 14 | 0 | x | 13% | 1.9 | 14
